Mtb hypoxia inh: reduces hypoxia-regulated biosensor signal in M. tuberculosis; AID 1159583; fluorescence inhibition, % (test concentration not listed); M. tuberculosis hypoxia-regulated fluorescent reporter, fluorescence; actives 0.1% (n = 300,000);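 active = 35 to 45% if threefold the growth effect, above 45% if 1.5-fold the growth effect; inactive = the rest, general growth blockers included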;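 also: wells of about 50 µL received 100 nL stock; 0% = vehicle wells and 100% = reference inhibitor wells; whole bacteria with a GFP reporter of the hypoxia response; strong numbers were not always called active; many hits fall short of the cut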
PrP UTR inh: inhibition of PrP 5' UTR reporter expression; cell-based PrP 5' UTR mRNA reporter, plate reader; inhibition, % (test concentration not listed); actives 0.35% (n = 340,000);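 active = every replicate at 50% or more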;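 also: 0 = median of the neutral control wells; tested in H4 reporter cells; numbers are from one replicate; inactives centre near -14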
Sa ugtP lethal: compounds lethal to S. aureus RN4220 ugtP deletion mutant; OD600 growth, 16 h; some inactives read as strong as hits; growth inhibition, % (no concentration beside the values); actives 0.54% (n = 330,000); AID 1259309;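 active = z-score under -3 and OD600 up to 0.15 on both plates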;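 also: plate controls were untreated wells for no effect and antibiotic for full effect; wells of about 80 µL received 100 nL stock; the first replicate is given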
BJeLR viability: kills HRASV12-expressing BJeLR cells; BJeLR (HRASV12) viability, CellTiter-Glo ATP luminescence, 48 h; reference of the scale not given here; inhibition, % (test concentration not listed); actives 0.17% (n = 300,000);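 active = replicate mean above 50%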;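 also: 50 nL library stock added to about 25 µL; numbers are from one replicate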
Autofluor counter: flagged as autofluorescent in microsphere protease counterscreen; compound autofluorescence counterscreen, microsphere flow cytometry; stronger effect = higher value; actives 3.1% (n = 360,000); fluorescence intensity (concentration not given with the values); AID 624483;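 active = at least 3 SD above the mean of all compounds, about 16000 in these data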;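 also: 100 nL of 1 mM stock went into each well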
RN4220 kill: kills Staphylococcus aureus RN4220 | S. aureus RN4220 growth, OD600, 16 h | inhibition, % (concentration not given with the values) | actives 0.33% (n = 330,000) | AID 1259311;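 active = z-score of -3 or lower and OD600 up to 0.18 on both plates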;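 also: plate controls were untreated cells for no effect and reference antibiotic for full effect; stock transfer was 100 nL into about 80 µL; one replicate is shown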
Mtb hypoxia inh growth: also measured in Mtb hypoxia inh; calls as there; growth inhibition, %; measured here: M. tuberculosis growth (absorbance);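 0% = vehicle and 100% = reference antibiotic; read after six days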
An asterisk follows results filed as active; nt = not tested or not shown.

Every second line gives: Mtb hypoxia inh	Mtb hypoxia inh growth	PrP UTR inh	Sa ugtP lethal	BJeLR viability	Autofluor counter	RN4220 kill
O=C(NN=Cc1ccc(OC(=O)c2ccc3c(c2)OCO3)cc1)c1cncc(Br)c1
 : 4	6	nt	-8	nt	nt	9.4
COc1ccc(CN(CC2CCC(C(=O)O)CC2)C(=S)Nc2cc(Cl)ccc2OC)cc1 (stereo not given)
 : 4	0	-4	18	6	3612	0.3
Cc1ccc(NC(=S)NC2CCSc3ccccc32)cc1 (stereo not given)
 : -11	-4	-1	17	2	3338	2.3
O=C(Nc1nccs1)C1CC(=O)N(c2ccc(Cl)cc2)C1 (stereo not given)
 : 12	4	7	6	-1	4649	10
O=C(/C=C/c1ccccc1)Oc1ccccc1C(=S)N1CCOCC1
 : 8	0	-26	4	3	4301	1.0
Cc1ccc(OCC(O)CNCc2ccc(F)cc2)cc1 (stereo not given)
 : 1	-1	-10	0	0	6134	1.2
C=CCc1cc(C)ccc1OCCn1ccnc1
 : nt	nt	6	9	-8	2627	6.4
NC(=O)c1nn(CC(=O)Nc2cccc(S(=O)(=O)N3CCCCCC3)c2)c(=O)c2ccccc12
 : 5	7	-13	11	nt	3924	4.2
Cc1ccc(NC2CCCN(C(=O)c3ccoc3)C2)cc1C (stereo not given)
 : -1	-6	6	-2	-2	4638	-1.7
CC(CC(=O)Nc1cccc(F)c1)S(=O)(=O)c1ccc2c(c1)NC(=O)CO2 (stereo not given)
 : 1	5	4	5	17	5739	2.3
Cn1c(C=NNC(=O)c2ccccc2Br)nc2ccccc21
 : -4	10	nt	2	nt	nt	2.1
O=C(NC1CCCN(Cc2ccc(Cl)cc2)C1)c1ccccc1C(F)(F)F (stereo not given)
 : -3	4	-18	11	3	4309	4.8
Cc1cccc2sc(N(CCCN(C)C)C(=O)c3nc4ccccc4s3)nc12
 : 14	2	-22	-5	15	10603	4.7
CC(=O)c1ccc(NC(=O)CCS(=O)(=O)c2ccc3c(c2)n(C)c(=O)c(=O)n3C)cc1
 : nt	nt	-26	-2	-10	6377	5.7
COc1cccc(NC(=O)C(Sc2nnnn2C)c2ccccc2)c1 (stereo not given)
 : -13	1	-25	10	12	4187	0.1
CCCCOC(=O)n1c(SCC(=O)N(C)C)nc2ccccc21
 : -14	-10	-7	-2	10	20862*	3.9
CSc1sc(C(=O)NCC2CC2)c2c1S(=O)(=O)N(C)c1ccccc1-2
 : -3	5	-78	-6	11	4300	-3.8
Cc1ccc2cc(CN(CC3CCCO3)C(=O)Nc3ccccc3F)c3nnnn3c2c1 (stereo not given)
 : 11	1	-32	-1	-1	2001	0.1
CCNC(=S)NN=Cc1ccc(OCC(=O)Nc2ccc(OC)cc2)c(OC)c1
 : 10	11	nt	5	nt	nt	15
CC1CCc2nc3ccc(S(=O)(=O)N4CCC(C(=O)NC5CCCC5)CC4)cc3c(C(=O)O)c2C1 (stereo not given)
 : 3	1	4	-3	nt	5829	6.7

Reprinted from the part before: two compounds; new compounds follow.
Every second line gives: Mtb hypoxia inh	Mtb hypoxia inh growth	PrP UTR inh	Sa ugtP lethal	BJeLR viability	Autofluor counter	RN4220 kill
CCNC(=S)NN=Cc1ccc(OCC(=O)Nc2ccc(OC)cc2)c(OC)c1
 : 10	11	nt	5	nt	nt	15
CC1CCc2nc3ccc(S(=O)(=O)N4CCC(C(=O)NC5CCCC5)CC4)cc3c(C(=O)O)c2C1 (stereo not given)
 : 3	1	4	-3	nt	5829	6.7
CCN1C(=O)[C@H]2[C@H]3CN=C(SC)N3[C@@](C)(C(=O)OC)[C@H]2C1=O
 : -6	6	-17	3	nt	3917	3.1
OC(CNCCc1ccccc1)COc1ccc(OCC(O)CNCCc2ccccc2)cc1 (stereo not given)
 : 5	3	-2	-16	1	3852	-1.4
Cc1cc(C)nc(N2CCCC(C(=O)Nc3nnc(C(C)C)s3)C2)n1 (stereo not given)
 : 5	10	nt	2	10	nt	2.8
O=C(O)c1ccccc1C(=O)N1CCN(C(=O)c2ccccc2Cl)CC1
 : nt	nt	-19	nt	-7	2518	nt
CCn1cc(S(=O)(=O)c2ccc(OC)cc2)c(=O)c2cc(OC)ccc21
 : 5	4	-12	4	5	4799	2.8
Cn1ncc(Cl)c1C(=O)NC(=S)Nc1sc2c(c1C#N)CCCCC2
 : 4	1	4	2	5	2241	3.8
COc1ccc(NC(=O)C2CC(=O)N(c3ccccc3C)C2)c(OC)c1 (stereo not given)
 : 8	-3	-17	8	9	2783	4.1
CC(=O)Nc1c2c(nn1-c1ccccc1C)CSC2
 : 12	5	-10	2	1	5215	2.4
O=C(CSc1nc(-c2ccc(Cl)cc2)[nH]c(=O)n1)Nc1cccc(Cl)c1
 : 3	3	-11	7	2	nt	4.5
Cc1ccc(NC(=O)CSc2nc3nn(-c4ccccc4)c(=O)c-3c3n2CCCCC3)cc1F
 : -3	3	-4	-22	nt	3930	-6.0
COc1ccc(NC(=O)CSc2nnc(CNc3ccc(C)cc3)n2C)cc1
 : -2	3	-4	7	2	3988	1.4
CCN1C(=O)C2C(c3ccc(-c4ccc(OC)cc4)c(OC)c3)N3CCC[C@@]3(C(=O)OC)C2C1=O (stereo not given in full)
 : 2	7	nt	3	nt	nt	2.5
O=C(Nc1ccccc1C(=O)O)c1ccc(CN2C(=O)c3ccccc3C2=O)cc1
 : nt	nt	-24	nt	0	4673	nt
CC(=O)N1CCC(N(C(=O)Nc2ccc(C)c(C)c2)C2CCCC2)CC1
 : 9	1	-19	-1	2	9470	3.8
CC1CCCC(NC(=O)COC(=O)Cc2c[nH]c3ccccc23)C1C (stereo not given)
 : -5	2	-10	-2	-3	3613	11
N#Cc1ccc(C(=O)Nc2ccn(-c3ccccc3)n2)cc1
 : -6	-6	-45	-3	4	2473	-0.4
CC(=O)c1cc(C#N)c(NCCCN(C)C)nc1C
 : 17	1	-21	8	0	3514	5.4
COC(=O)C1CCN(C(=O)/C=C/c2ccccc2)CC1
 : nt	nt	-20	0	3	2577	5.2
Cc1ccccc1/C=N/Nc1ccnc2cc(Cl)ccc12
 : nt	nt	-45	nt	11	2488	nt
C=CCOc1ccc(/C=C/C(C)=NO)cc1
 : 17	10	nt	6	nt	nt	10.0

2 of these compounds in another layout:
smiles,Mtb hypoxia inh,Mtb hypoxia inh growth,PrP UTR inh,Sa ugtP lethal,BJeLR viability,Autofluor counter,RN4220 kill
O=C(O)c1ccccc1C(=O)N1CCN(C(=O)c2ccccc2Cl)CC1,nt,nt,-19,nt,-7,2518,nt
CCn1cc(S(=O)(=O)c2ccc(OC)cc2)c(=O)c2cc(OC)ccc21,5,4,-12,4,5,4799,2.8

(continued)
Every second line gives: Mtb hypoxia inh	Mtb hypoxia inh growth	PrP UTR inh	Sa ugtP lethal	BJeLR viability	Autofluor counter	RN4220 kill
CC(OC(=O)c1ccc2c(c1)C(=O)N(Cc1ccncc1)C2=O)C(=O)Nc1cccc(Cl)c1Cl (stereo not given)
 : 3	6	-34	2	9	8404	6.2
CC(C)(C)Nc1nc(Cl)nc(NC(C)(C)C)n1
 : 5	-2	8	-2	2	7748	0.8
CCOC(=O)NN=Cc1sccc1C
 : 3	2	nt	-9	nt	nt	-5.0
Cc1csc2nc(O)c(C(=O)NCC3CCCO3)c(=O)n12 (stereo not given)
 : -2	5	1	3	5	6639	3.5
CCN(CC(=O)Nc1c(F)cccc1F)C(=O)CNC(=O)c1ccc2c(c1)OCO2
 : -2	0	-28	6	0	5564	1.1
O=C1CCN(Cc2ccccc2)CCN1[C@H](COc1ccccc1)c1ccccc1
 : 4	9	-11	-12	13	2814	-5.2
COCCN(C(=O)CSc1nnc(-c2ccco2)n1C)c1c(N)n(CC(C)C)c(=O)[nH]c1=O
 : 2	-3	-6	1	nt	6546	-0.6
OC(CN1CCN(c2ccccc2)CC1)c1ccc2c(c1)CCN2 (stereo not given)
 : 3	10	-10	1	-5	7189	-14
CC1(C)CC2(CC(c3ccc(F)cc3)c3ccc(O)cc3O2)NC(=S)N1 (stereo not given)
 : 15	-4	-15	1	-19	4628	1.4
COc1ccc(S(C)(=O)=O)cc1S(C)(=O)=O
 : -5	2	-5	-2	7	15699	-1.9
COc1ccccc1N=C1SCC(=O)N1Cc1ccco1
 : 6	1	-17	6	6	5933	2.7
O=C(Nc1cnc2ccccc2c1)c1ccco1
 : 21	7	-13	1	2	4521	1.0
O=C(OC1CCOC1=O)c1cc(Cl)ccc1[N+](=O)[O-] (stereo not given)
 : nt	nt	-16	nt	-1	5391	nt
CC[C@@H](C)[C@H](NC(=O)Cc1c(C)c2cc3c(C)c(C)oc3c(C)c2oc1=O)C(=O)O
 : -7	-4	-2	3	1	3550	0.0
CC(C)OCCCNC(=O)c1sc(=S)n(C)c1N
 : -7	-4	-13	-6	-5	4314	-6.3
COc1ccc(C(=O)N=C2SC3CS(=O)(=O)CC3N2c2ccc(C(C)=O)cc2)cc1 (stereo not given)
 : 7	-4	-20	12	7	5566	3.3
Cc1ccc(-c2nnc(N3CCN(S(C)(=O)=O)CC3)c3ccccc23)cc1
 : 3	8	11	-1	-4	4658	1.4
COc1cccc(OC)c1C(=O)NC(=S)NCc1ccco1
 : 5	0	-6	-2	4	3414	5.3
COc1ccccc1NC(=O)C(=O)NNC(=O)c1ccco1
 : 2	-2	-24	-2	4	3157	0.2
Cc1nc2ccccn2c1-c1csc(Nc2cccc(C(=O)O)c2)n1
 : -2	-3	-4	-5	-2	2989	1.6
Cc1ccc(/C=N\NC(=O)CCc2n[nH]c(=O)[nH]c2=O)o1
 : nt	nt	-9	nt	-15	2334	nt
CCc1ccc(S(=O)(=O)N=C2C=CC(=O)c3ccccc32)cc1
 : -4	5	nt	0	nt	nt	-4.4
CCC(CC)NC(=O)COC(=O)c1cc(SC)ccc1Cl
 : 3	6	-13	4	-1	4844	3.3
CCOC(=O)C(NC(=O)c1cccc(Cl)c1)(Nc1nnc(C)s1)C(F)(F)F (stereo not given)
 : 0	4	-14	6	3	2509	7.0
Cc1cc(=O)oc2c(C)c(OCC(=O)N(C)C)ccc12
 : nt	nt	-25	-4	-1	2785	0.9
CCCCOc1ccc(S(=O)(=O)NC(=O)NCc2ccc(OCCC)cc2)cc1
 : 3	2	-20	-16	-1	10973	12
Cc1ccc(NC(=O)Cn2ncc(Cl)c(Cl)c2=O)cc1S(=O)(=O)N1CCCCC1
 : 3	10	-8	-6	nt	8538	5.2
Cc1cc(C(=O)COC(=O)CN(C)S(=O)(=O)c2ccc(Cl)cc2)c(C)n1CC1CCCO1 (stereo not given)
 : nt	nt	-26	4	-1	3297	0.3
Cn1cc(C(=O)Nc2ccccn2)c(=O)c2ccccc21
 : 14	1	-46	3	8	3738	4.2
O=C(Nc1nnc(CSCc2ccc(Cl)cc2)s1)c1cccc([N+](=O)[O-])c1
 : -6	2	-1	10	-8	4518	4.9
CCOc1cc(Cl)c(S(=O)(=O)NCCCn2ccnc2)cc1Cl
 : 1	2	-33	6	0	3805	7.0
Cc1ccc2nc(-c3ccc(S(=O)(=O)N4CCOCC4)cc3)cn2c1
 : -88	-32	nt	-1	2	nt	0.9
COc1ccc(NC(C)=O)cc1S(=O)(=O)NC1CCSc2ccccc21 (stereo not given)
 : -3	1	-29	4	-2	3442	3.1
Cc1ccc(C(=O)NCCCN2CCOCC2)cc1N1CCCC1=O
 : nt	nt	-24	0	1	4251	1.8

Screening data as filed in PubChem BioAssay.

Hits appear at their usual frequency, and some 4% of all compounds hit somewhere here.
